rRNA inh HTS: selective bacterial rRNA inhibition in E. coli | hit rate 1.6% among 350,000 | GFP signal change (wild-type ribosome), % (no concentration beside the values) | AID 720706 | E. coli WT GFP vs humanized-ribosome RFP mutants, fluorescence, 24 h; stronger effect = lower value; DMSO median 0, no signal -100;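 active = significant combined selectivity score with lowered wild-type GFP, culture density cut under 30%, mutant RFP and density less affected; inactive = any of these conditions unmet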; also: one replicate is shown; some compounds called inactive have numbers as strong as hits
Beta cell apopt: blocks beta cell apoptosis. hit rate 0.8% among 300,000. AID 435005. INS-1E cytokine-induced death, ATP luminescence, 48 h; percent of positive-control rescue, neutral wells zero. protection from apoptosis, % (test concentration not listed);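 active = all replicates at 75% or more, or half of them and the mean; inconclusive = half reach 75% but not the mean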;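 also: 0% = cytokine-treated negative control wells and 100% = positive control rescue; higher means more ATP so stronger rescue from cytokine killing; wells of about 40 µL received 100 nL stock; the first replicate is given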
RanGTP-Imp inh: inhibitors of RanGTP-importin-beta interaction, primary screen, biochemical, FRET, CFP-Ran, YFP-importin-beta, homogeneous; cell-free CFP-Ran/YFP-importin-beta FRET ratio; inhibition, % (test concentration not listed); hit rate 1.1% among 300,000;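 active = most replicates above 15%; inconclusive = exactly half above 15%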;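 also: 0% = DMSO wells and 100% = Ran loaded with GDP instead of GTP; wells of about 40 µL received 100 nL stock; the first replicate is given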
Vif A3G: inhibitors of Vif binding to APOBEC3G peptide, primary screen, biochemical, TR-FRET, GST-Vif 1-94, biotin-A3G peptide, dose response retest (AID 1117319). TR-FRET GST-Vif / biotin-A3G peptide binding; higher % means a stronger effect; test concentration not given here; strong numbers were not always called active. hit rate 0.57% among 260,000. inhibition, %; hits with a dose series show IC50 in µM;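 active = above the screen mean plus three standard deviations and confirmed in dose response; inconclusive = results disagree or hit not tested in dose response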;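 also: Vif residues 1-94 fused to GST binding biotinylated APOBEC3G peptide 110-148; 0% = full assay without inhibitor and 100% = GST in place of GST-Vif; retest series ran down from 100 µM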
T cruzi repl: T. cruzi replication inhibition | T. cruzi beta-gal in NIH3T3, luminescence, 90 h | inhibition, % (concentration not given with the values) | hit rate 1.4% among 300,000 | AID 1885;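 active = mean inhibition across valid replicates above about 55%, limit read from the data; inconclusive = mean below that limit but half or more replicates reach it; inactive = mean below it, under half of replicates reach it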;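 also: signal also drops with host cell toxicity which is not excluded here; 0% = plate median of DMSO wells and 100% = zero luminescence signal; higher percent means less beta-gal luminescence so fewer parasites; stock transfer was 50 nL into about 50 µL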
Bfl-1 A1 inh: inhibitors of the anti-apoptotic protein A1, read as caspase activation; MEF A1-2A-BIM cells, Caspase-Glo 3/7 luminescence, 3 h; percent of clofoctol response, vehicle zero; caspase activation, % (concentration not given with the values); hit rate 0.066% among 330,000; AID 2462;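 active = over half of replicate activation scores above 10%, or exactly half above 10 with the replicate mean above 10; inconclusive = replicate mean below 10 yet half the replicates above 10; inactive = over half of replicates below 10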;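 also: wells of about 30 µL received 50 nL stock; many hits fall short of the cut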
Calb FLC: C. albicans growth modulation with fluconazole. C. albicans CaCi-2 (fluconazole-resistant clinical isolate) + fluconazole, Alamar Blue growth, 48 h. growth inhibition, % (no concentration beside the values). hit rate 0.57% among 300,000;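 active = most replicates above 75%; inconclusive = exactly half above 75%; inactive = most below 75%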;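 also: all wells also contain fluconazole at 8 µg/ml as a sub-toxic cotreatment; 0% = median of DMSO wells and 100% = median of geldanamycin control wells; wells of about 8 µL received 7.5 nL stock; the first replicate is given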
MLL AF4-AF9 inh: blocks AF4 peptide binding to human AF9; P42568; AlphaScreen, biotin-AF4 peptide binding to FLAG-AF9; hit rate 0.47% among 350,000; inhibition, % at 10 µM;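 active = every replicate reaching a set inhibition limit, whatever the replicate mean, cut at about 25% in these data; inconclusive = mean inhibition reaches that limit but some replicates miss it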;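 also: 0% = plate neutral control median and 100% = total signal loss; the record names both 10 and 1 µM as test concentration; the first replicate is given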
Target sequence (P42568 whole entry, looked up): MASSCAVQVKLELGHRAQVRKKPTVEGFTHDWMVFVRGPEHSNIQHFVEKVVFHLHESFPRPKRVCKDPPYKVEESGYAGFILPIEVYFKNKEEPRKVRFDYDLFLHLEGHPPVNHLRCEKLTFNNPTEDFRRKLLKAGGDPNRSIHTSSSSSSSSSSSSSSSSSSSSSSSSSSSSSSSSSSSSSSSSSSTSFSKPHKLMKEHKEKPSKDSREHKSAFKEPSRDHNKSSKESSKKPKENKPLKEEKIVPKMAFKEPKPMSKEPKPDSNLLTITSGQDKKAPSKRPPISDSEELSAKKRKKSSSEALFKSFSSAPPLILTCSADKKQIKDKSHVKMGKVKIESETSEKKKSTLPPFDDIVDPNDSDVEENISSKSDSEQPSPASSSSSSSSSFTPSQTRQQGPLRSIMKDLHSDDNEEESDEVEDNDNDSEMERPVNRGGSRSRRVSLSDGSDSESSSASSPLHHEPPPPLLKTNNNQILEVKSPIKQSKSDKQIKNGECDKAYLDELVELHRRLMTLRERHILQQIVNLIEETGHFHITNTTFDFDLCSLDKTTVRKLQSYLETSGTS
rRNA inh HTS OD600: second read-out of rRNA inh HTS, no call of its own (marks repeat the call); OD600 change, %; measured here: OD600 growth;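 optical density of the mix in the first replicate; 0 = DMSO median and -100 = no signal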
rRNA inh HTS RFP: recorded beside rRNA inh HTS, whose call it bears; RFP signal change, %; measured here: RFP humanized mutant strains;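 first replicate; 0 = DMSO median and -100 = no signal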
Active calls of the source: *; ? = inconclusive; . = no result given; & = joins results of further samples. A portion of the library (hit frequency here may not be typical).

Compound	rRNA inh HTS	rRNA inh HTS OD600	rRNA inh HTS RFP	Beta cell apopt	RanGTP-Imp inh	Vif A3G	T cruzi repl	Bfl-1 A1 inh	Calb FLC	MLL AF4-AF9 inh
O=C(NNC1CC(=O)N(c2cccc(Cl)c2)C1=O)c1cccs1 (stereo unspecified)	.	.	.	-0.5	3.0	28.5%	-20.4	0.6	4.8	.
COc1ccc(-c2nnc(SCC(=O)NC3CC3)o2)cc1	-0.6	3.2	0.1	3.2	.	-6.0%	.	-0.2	.	-0.6
CCOC(=O)c1ccccc1NC(=O)COC	.	.	.	-4.7	-4.6	0.3%	-2.0	-0.3	6.1	.
CCOc1ccc(NC(=O)C2CC(=O)N(CC)C(=Nc3ccc4c(c3)OCO4)S2)cc1 (stereo unspecified)	.	.	.	3.0	-4.0	-2.2%	14.5	0.7	8.2	.
Cc1ccc(Nc2nc(N)nc(CSc3nccn3C)n2)c(C)c1	.	.	.	.	5.6	-2.8%	-13.9	-0.5	1.1	.
NC(=S)Nc1ncc(C(F)(F)F)cc1Cl	1.1	-0.9	-2.2	-8.0	0.2	-0.4%	-13.1	-1.3	16.4	-8.1
CCC(=O)c1cc(F)c(N2CCN(S(=O)(=O)c3ccccc3)CC2)cc1C	.	.	.	4.0	-1.3	22.5%	29.4	0.1	-3.2	.
CCOc1ccc(CC(=O)NNC(=O)NC2CCCCC2)cc1	11.6	8.6	1.2	-3.2	-1.0	3.6%	-6.9	0.0	-6.5	3.3
C#CC(CO)N(CCN(Cc1ccccc1)C(C#C)CO)Cc1ccccc1 (stereo unspecified)	.	.	.	-1.1	2.8	-0.3%	15.6	?	-1.4	.
CSCCC(NC(N)=O)C(=O)NCC1CCCCC1 (stereo unspecified)	.	.	.	-7.1	0.9	1.5%	38.0	1.7	-25.4	.
CCOC(=O)C1CCCN(C(=O)CSc2ccc(NC(C)=O)cc2)C1 (stereo unspecified)	4.8	0.9	-1.5	0.1	1.9	9.6%	-17.9	-0.9	-3.9	-0.6
CON(c1nc(Cl)nc(N(C)C)n1)S(=O)(=O)c1ccc(C)cc1	4.4	1.3	-10.4	-9.3	1.5	-6.8%	-10.7	0.2	-0.2	2.4
CCN1C(=O)[C@@H]2[C@@H](c3ccc(SC4CCCCC4)c(OC)c3)N3CCC[C@@]3(C(=O)OC)[C@@H]2C1=O	-8.6	-4.4	9.0	-3.1	.	.	.	0.4	.	15.9
Nc1nc(Cl)cc(N2CCOCC2)n1	.	.	.	-1.7	-0.5	-1.5%	4.2	0.0	-2.1	.
CCOC(=O)C1(Cc2ccc(OC)cc2)CCN(C(=O)Cn2cnnn2)CC1	-2.9	0.7	-3.0	2.6	2.1	?	-2.6	-0.3	-22.0	0.1
COCC(C)n1c(SCc2ccc(C(=O)OC)o2)nc2ccccc2c1=O (stereo unspecified)	-8.7	-25.1	-3.4	6.6	7.6	3.7%	18.6	0.0	25.9	9.0
O=C(Nc1cc(Cl)ccc1-n1cncn1)c1cccc(S(=O)(=O)N2CCOCC2)c1	0.1	1.7	3.8	1.1	.	-5.9%	.	-0.3	.	1.4
Cc1cccc(CC(=O)NC2CCCCCC2)c1	5.9	4.6	-1.8	-1.2	-5.2	0.9%	-7.6	0.4	-20.7	0.1
COc1ccc([N+](=O)[O-])cc1NC(=O)Cc1ccc(C)cc1	11.3	13.0	-2.7	.	0.6	.	-1.3	0.3	-2.3	2.4
C/C(=N\NC(=S)NCc1ccccc1)c1ccc(C#N)cc1	16.5	7.0	2.8	11.0	8.1	3.6%	44.1	1.4	0.4	-1.3
COc1ccc(N2C(=O)CC(NNC(=O)c3ccc(Br)s3)C2=O)cc1 (stereo unspecified)	3.4	1.9	-2.1	4.6	0.4	1.7%	-3.5	-0.7	-3.3	-3.2
Cc1cccc(C(=O)OCC(=O)NCC2COc3ccccc3O2)c1 (stereo unspecified)	3.3	-2.6	-2.2	-1.4	.	.	.	-0.1	.	-1.1
Cc1ccccc1-c1nc(CN2CCC(C(=O)NCCN3CCOCC3)CC2)c(C)o1	1.0	13.8	1.6	4.1	2.9	-8.2%	14.5	0.6	1.0	-3.1
Cc1ccc(C(=O)NCC(=O)OC(C)C(=O)Nc2ccc(N(C)C)cc2)cc1C (stereo unspecified)	-4.7	3.7	5.4	-4.4	1.0	7.7%	-7.9	-0.1	11.1	10.3
CC1CCCCN1CCCNc1c(C=O)c(=O)[nH]c2ccccc12 (stereo unspecified)	4.2	8.1	0.0	-4.1	5.4	.	-17.9	2.5	6.3	-3.7
CCOC(=O)/C(C(N)=NC(C)C)=C(\O)c1ccccc1	.	.	.	-3.6	-0.7	26.0%	-14.1	-0.1	?	.
Cc1ccc(-c2ccc([C@H]3[C@H]4C=CC[C@@H](C)[C@@H]4C(=O)N3Cc3ccccc3)c(F)c2)cc1	12.3	4.1	-9.6	6.8	1.3	.	22.6	0.1	-3.1	-6.3
CC[n+]1c(C)sc2cc(C)ccc21	3.2	12.2	3.8	-5.3	1.1	26.5%	18.1	0.1	-16.0	-11.3
CCN(c1ccc(F)cc1)S(=O)(=O)c1ccc2[nH]cc(C(=O)NCCCN3CCOCC3)c(=O)c2c1	0.7	-3.5	3.3	2.5	-0.3	?	1.4	0.1	3.5	-1.1
Cc1cc(C)cc(N(C(=O)CNC(=O)c2ccco2)C(C(=O)NC2CCCC2)c2cccnc2)c1 (stereo unspecified)	.	.	.	-2.4	0.0	9.7%	-1.0	-0.3	11.4	.
O=C1Nc2c(c(=O)[nH]c(=O)n2-c2ccccc2F)C(C(F)(F)F)(C(F)(F)F)N1	.	.	.	-10.9	3.4	-1.7%	-6.6	-0.3	-10.1	.
Cn1c(N)c(C(=O)COC(=O)COc2ccc(Cl)cc2Cl)c(=O)n(C)c1=O	-10.7	-5.5	-0.8	-1.8	.	-1.4%	.	0.3	.	1.2
CC(C)(C)c1cc(NS(=O)(=O)c2ccc(Br)s2)no1	-2.3	-15.8	-4.1	1.4	?	.	2.7	0.6	0.5	-1.3
COc1cc2c(cc1OC)CN(C(=O)CC1CC3CCC1C3)CC2 (stereo unspecified)	.	.	.	0.5	2.4	0.7%	-0.6	-0.1	43.3	.
Cc1onc(-c2ccccc2)c1C(=O)Nc1sccc1C#N	-5.3	-9.3	2.7	5.3	0.6	.	-3.6	0.1	34.9	-1.4
Cc1ccc(N2CCN(C(=O)CN3C(=O)c4ccccc4C3=O)CC2)cc1	.	.	.	2.2	5.0	4.2%	-15.6	-0.1	-4.2	.
O=C(COC(=O)Cc1cccc(F)c1)NCCc1ccccc1	.	.	.	-7.3	.	-6.0%	.	0.0	.	-1.3
COc1ccc(C)cc1Nc1n[n+](-c2ccccc2)c(-c2cc([N+](=O)[O-])cc(OC)c2O)s1	.	.	.	-1.1	-0.8	.	12.1	0.8	-8.0	.
CC(C)(C)CN1C(N)=NC[C@H]1Cc1ccc(O)cc1	-5.5	0.7	0.8	-7.5	0.9	.	-4.2	0.0	-5.4	-3.8
O=C(Nc1cccc2c1CCCC2)C1CCCN(S(=O)(=O)c2cccc3nonc23)C1 (stereo unspecified)	.	.	.	-5.4	1.5	-4.3%&22.9%	10.7	0.4	-9.1	.
COc1ccc(N2CCN(C(=O)C3CCN(S(=O)(=O)c4cccs4)CC3)CC2)cc1	12.1	17.7	1.9	3.0	-3.7	-5.2%	-5.3	-0.3	1.1	-2.8
COC(=O)N1CCN(c2ccc(C(C)=O)cc2)CC1	.	.	.	-3.4	2.5	5.1%	-1.9	0.0	-1.1	.
O=C(CCn1c(=S)oc2ccccc21)N1CCCCC1	4.9	-0.6	-2.7	-4.9	?	-5.9%	-2.7	0.7	-2.6	-0.1
CNC(=O)c1[nH]cnc1C(=O)N[C@@H](CC(C)C)C(=O)OCc1ccccc1	.	.	.	-6.1	-4.6	8.5%	10.3	-0.6	-16.1	.
OCCOCCNc1ncnc2sc(-c3ccccc3)cc12	.	.	.	-7.3	-3.9	-5.0%	-3.2	1.0	-3.3	.
C[C@@H]1CN([C@H](C)CO)C(=O)c2cc(NC(=O)Cc3cn(C)c4ccccc34)ccc2O[C@H]1CN(C)C(=O)Nc1ccc2c(c1)OCO2	-3.1&-0.5	5.1&5.8	-1.2&-1.5	0.3	.	.	.	0.6	.	-12.1
COc1ccc(N2C(=O)C3C(c4ccc(C(=O)O)cc4)NC(Cc4ccccc4)(C(=O)O)C3C2=O)c([N+](=O)[O-])c1 (stereo unspecified)	-19.3*	-10.3*	1.2*	-0.7	0.6	?	-4.9	-0.1	-6.2	-2.1
CCOC(=O)N1CCN(S(=O)(=O)c2cc(C)c(C)cc2C)CC1	.	.	.	2.3	-4.4	?	6.7	1.3	0.6	.
CC(=O)c1cccc(NC(=S)NC(=O)c2ccccc2)c1	.	.	.	1.7	-0.7	1.3%	7.8	1.3	26.9	.
Cc1ccc(C)c(OCC(=O)NCCNC(=O)COc2cc(C)ccc2C)c1	.	.	.	.	1.9	0.4%	-4.6	0.4	51.1	.
NC(=O)CSc1oc(-c2ccc(F)cc2)nc1S(=O)(=O)c1ccccc1	.	.	.	8.8	0.7	?	-10.7	-0.9	1.8	.
O=C1OCc2cccc([N+](=O)[O-])c21	.	.	.	-6.3	-4.6	1.8%	-2.3	0.2	12.3	.
COC(=O)c1sccc1S(=O)(=O)Nc1ccc(C)cc1	0.1	6.2	-1.8	-7.4	-6.3	24.6%	11.4	-0.1	56.0	-2.9
CCCCCCCCNC(=O)/C(C#N)=C/c1ccccc1[N+](=O)[O-]	-0.3	-0.9	1.6	1.2	-2.4	0.6%	5.9	0.0	-14.9	-1.2

High-throughput results from PubChem.
